# Screens: PubChem, National Center for Advancing Translational Sciences (NCATS)
# VACV mCherry inh: inhibitors of vaccinia virus infection (mCherry reporter signal); Vaccinia virus mCherry reporter infection, fluorescence; about a quarter of the inactives have no number; 310,000 compounds, 0.63% hits; AID 720579; Potency, µM (highest dose often 36.5 µM), for inactives: top-dose activity change, negative = inhibition, usual class: inhibitors; active = well fitted inhibition curve with a large enough effect; inconclusive = small, poorly fitted or top-dose-only effect; inactive = no such curve, though single readings can be large or run the other way; tested in A549 cells; also: nearly all actives have a fitted effect of over 35% in size; inactives centre near -10
# VACV Venus inh: inhibitors of vaccinia virus (Venus reporter) | Vaccinia virus Venus reporter expression, fluorescence | Potency, µM (titrated, usually from 36.5 µM), inactives show top-dose activity change, negative = inhibition, actives largely listed as inhibitors | 330,000 compounds, 0.46% hits | AID 720580; active means well fitted inhibition curve with a large enough effect; inconclusive means small, poorly fitted or top-dose-only effect; inactive means no such curve, though single readings can be large or run the other way; tested in A549 cells; also: nearly all actives have a fitted effect of over 30% in size; inactives centre near -10
# Numbers without * were called inactive; i = inactive; u = inconclusive; x = not tested or not shown; & = joins results of further samples; [ ] = dose if it differs, or a comment. % is scaled to controls: 0 for no effect and ±100 for the full control effect; potency is read from the fitted curve at half-maximal effect.
# Values run as follows: VACV Venus inh	VACV mCherry inh
- Cc1ccc(-n2c3c(c(=O)[nH]c2=O)C(NC(=O)C(C)(C)C)(C(F)(F)F)C(=O)N3)cc1 (stereo not drawn)
→ 2%	0%
- Clc1ccc(SCCCCn2cncn2)cc1
→ -18%	-23%
- O=C(CC1Sc2ccccc2NC1=O)NCc1ccccc1 (stereo not drawn)
→ -4%	i
- COc1ccc(NC(=O)c2ccccc2N2C(=O)C3C4C=CC(C5CC45)C3C2=O)c(OC)c1 (stereo not drawn)
→ 0%[7.34 µM]	-6%[7.34 µM]
- COc1ccccc1N(C)S(=O)(=O)c1ccc(C(=O)NNC(=O)c2ccccc2O)cc1
→ u	u
- COc1ccc(NC(=O)CN2CCN(c3nc(-c4ccc(F)cc4)cs3)CC2)c(OC)c1
→ -10%	-11%
- O=C(O)c1ccc(/C=C/C(=O)c2ccc3c(c2)OCCCO3)cc1
→ u	u
- COc1ccccc1NC(=O)CSc1nnc(C)o1
→ -10%	-12%
- FC(F)(F)c1cccc(N2CCN(CC3CC4C=CC3C4)CC2)c1 (stereo not drawn)
→ -8%	i
- CCOC(=O)c1ccc(Nc2nc3ccc(C(=O)c4ccccc4)cc3n3c(C)nnc23)cc1
→ -3%	-4%
- Cc1ccc(C(=O)CC2(O)C(=O)N(CCc3ccccc3)c3ccc(Cl)cc32)cc1 (stereo not drawn)
→ -15%	u
- COC(=O)Cn1ccc(-c2ccc(Cl)cc2)c(C#N)c1=O
→ -20%	-15%
- COCCNC(=O)C1(C)CCCN(Cc2ccc(Cl)c(Cl)c2)C1 (stereo not drawn)
→ -3%	0%
- O=C1CCC(/C=C/c2ccccc2)=NN1Cc1ccccc1
→ -8%	-1%
- Cc1cc(NC(=O)C2CC2)ccc1NC(=O)c1cccs1
→ -18%	8%
- COCCCN1C(=O)C(CC(=O)NC2CC2)CC(C(=O)N2CCOCC2)=C1C (stereo not drawn)
→ 0%	-5%
- COC(=O)C1=C(N)Oc2c(c(=O)oc3ccccc23)C1c1cccnc1 (stereo not drawn)
→ -6%	x
- CCOC(=O)C1=C(N)n2c(s/c(=C\c3cccnc3)c2=O)=C(C#N)C1c1cccnc1 (stereo not drawn)
→ -8%	-16%
- CCCCN1C[C@H](Cc2ccccc2)[C@@H](CC(=O)Nc2ccccc2)C1=O
→ -22%&-28%	-17%
- COc1ccc(N(C)S(=O)(=O)c2cccc(C(=O)NC3CCCC3)c2)cc1
→ -2%	-1%
- N=c1c(C(=O)NCCc2ccccc2)cc2c(=O)n3ccccc3nc2n1CC1CCCO1 (stereo not drawn)
→ -6%	-16%
- CCOc1ccc(CCNC(=O)c2cc3c(=O)oc4ccc(C)cc4c3s2)cc1OCC
→ -5%	0%
- Cc1cccc(CC2C(=O)Nc3ccccc32)c1 (stereo not drawn)
→ -19%	-9%
- COc1ccc(CNC(=O)c2ccc(Cn3c(=O)c4cccn4c4cccnc43)cc2)cc1OC
→ -11%	-11%
- NC(=O)C1CC(=O)N(c2ccc(OCC(=O)Nc3cccc(C(F)(F)F)c3)cc2)C1 (stereo not drawn)
→ -9%	-15%
- COc1ccc(C(=O)NCC2(N3CCN(C)CC3)CCCCC2)cc1
→ -3%	0%
- COc1ccccc1CNC(=O)c1nccnc1CO
→ -5%	-5%
- Cc1ccc(NC(=O)c2ccco2)c(NC(=O)c2ccc(Cl)cc2)c1
→ -12%	0%
- CCCCCn1c(=O)[nH]c2cc(C(=O)N3CCN(c4ccc(OC)cc4)CC3)ccc2c1=O
→ -15%	-16%
- CCOC(=O)/C(=N\Nc1ccccc1Cl)N1CCN(C)CC1
→ -22%	-12%

# Complete entries, quoted from the list. Screens in order: VACV Venus inh | VACV mCherry inh
# COc1ccc(CNC(=O)c2ccc(Cn3c(=O)c4cccn4c4cccnc43)cc2)cc1OC is entered as -11% | -11%
# COc1ccccc1NC(=O)CSc1nnc(C)o1 is entered as -10% | -12%
# CCCCCn1c(=O)[nH]c2cc(C(=O)N3CCN(c4ccc(OC)cc4)CC3)ccc2c1=O is entered as -15% | -16%
# CCOC(=O)c1ccc(Nc2nc3ccc(C(=O)c4ccccc4)cc3n3c(C)nnc23)cc1 is entered as -3% | -4%
# COC(=O)C1=C(N)Oc2c(c(=O)oc3ccccc23)C1c1cccnc1 (stereo not drawn) is entered as -6% | x

# (listing goes on)
# Values run as follows: VACV Venus inh	VACV mCherry inh
- COc1ccc(NC(=O)CCc2nc(-c3ccc(C)cc3)no2)c(OC)c1
→ -1%	x
- COC(=O)c1ccccc1NC(=O)CSc1nncn1-c1ccccn1
→ 0%	-3%
- Cc1ccccc1C(=O)N1CCC(C(=O)Nc2ccccc2N2CCCC2)CC1
→ -6%	u
- COc1ccc(COCC(O)CN2CCC(C(N)=O)CC2)cc1OC (stereo not drawn)
→ -14%	-4%
- Cc1cc(=O)oc2cc(OCC(=O)N3c4ccccc4CC3C)ccc12 (stereo not drawn)
→ u	u
- COc1cccc(C2=NC(C)(C)NC(c3ccccc3O)C2)c1 (stereo not drawn)
→ 2%	-9%
- O=C(COC(=O)C12CC3CC(CC(C3)C1)C2)Nc1nc2c(F)c(F)c(F)cc2s1
→ -8%	-14%
- Cc1ccc(CN2C(=O)CCSc3ccc(Cl)cc32)cc1
→ -28%	x
- CO[C@H]1CN(C)C(=O)c2ccc(NS(=O)(=O)c3ccccc3F)cc2OC[C@H](C)NC[C@@H]1C
→ -9%	i
- O=C(O)c1cccc(Nc2nc3ccccc3nc2NS(=O)(=O)c2ccccc2)c1
→ 1%	-8%
- O=C(CSc1nnc(Nc2ccccc2)s1)Nc1ccc(S(=O)(=O)N2CCOCC2)cc1
→ u	x
- C/C(CC(=O)NCCCN1CCOCC1)=N\NC(=O)COc1cccc2ccccc12
→ -9%	i
- CCC1CCCCN1C(=O)CSc1nnc(CNC(=O)c2c(F)cccc2Cl)o1 (stereo not drawn)
→ -3%	-24%
- CCc1ccc(CN(C)C(=O)c2cc(COc3cncc(Cl)c3)on2)cc1
→ -24%	-23%
- O=C(O)[C@@H]1CN[C@@H](C(=O)O)C1
→ -12%	-14%
- Nc1ccc(Cl)c(S(=O)(=O)Nc2ccc(Cl)cc2)c1
→ -9%	i
- CC1(C)CC(=O)C2=C(C1)N(c1ccc(F)cc1)C(=O)C2(NC(=O)c1ccccc1F)C(F)(F)F (stereo not drawn)
→ 2%	-17%
- Cc1ccc(C(=O)NNC(=O)C2CCN(c3nccc(C)n3)CC2)cc1
→ -10%	-7%
- Cc1ccc(C)c(CSc2nnc3[nH]c(=O)cc(-c4ccccc4)n23)c1
→ -5%	-13%
- Cc1ccc2c(c1)C(c1ccccc1)N(C(=O)c1ccccc1[N+](=O)[O-])CC(=O)N2 (stereo not drawn)
→ -16%	-11%
- Cc1noc(C)c1NC(=O)N(C)C[C@H]1Oc2ccc(NC(=O)Cc3ccccc3)cc2C(=O)N([C@H](C)CO)C[C@@H]1C
→ -4%	i
- O=C(c1cc(-c2cccs2)nn1-c1ccccc1)N1CCN(S(=O)(=O)c2ccccc2)CC1
→ -15%	-14%
- CC1CCN(C(=O)CN2CCSc3ccc(S(=O)(=O)N(C)C)cc32)CC1
→ 22%	8%
- O=C(Nc1nnc2n1CCS2)c1ccco1
→ -5%	i
- O=C(COc1ccccc1)N1CCN(C2CCCC2)CC1
→ -9%	-11%
- CCCn1c(CN2CCN(C(=O)OCC)CC2)nc2cc(NC(=O)CC)ccc21
→ -25%	u
- O=C1CC(c2ccc(C(F)(F)F)cc2)c2c(c3ccccc3oc2=O)O1 (stereo not drawn)
→ -11%	-7%
- CC(C)COc1ccc2[nH]c3c(c2c1)CCCC3=O
→ -5%	x
- COc1ccc(/C(C)=N/NC(=S)NCc2ccco2)cc1
→ -26%	-6%
- CC(=O)OCC#CCSc1nnc(-c2cccc(Br)c2)o1
→ u	u

# Looked up one by one from above (two):
# Values run as follows: VACV Venus inh	VACV mCherry inh
- O=C(O)[C@@H]1CN[C@@H](C(=O)O)C1
→ -12%	-14%
- COc1ccc(/C(C)=N/NC(=S)NCc2ccco2)cc1
→ -26%	-6%

# Continued.
# Values run as follows: VACV Venus inh	VACV mCherry inh
- O=C(c1ccccc1)c1cn(CC(=O)N2CCCC2)c2ccccc12
→ -5%	i
- Cc1ccccc1C(=O)N(C)[C@H]1C[C@H]2c3[nH]c4ccccc4c3CCN2C(=O)[C@H]1[C@H](C)O
→ -11%	-7%
- CCc1ccc(NC(=O)CCc2nc3sc4c(c3c(=O)[nH]2)CCCC4)cc1
→ -8%	-18%
- O=C(N/N=C\c1ccccc1)c1ccccc1-n1cccc1
→ 2%	14%
- C[C@@H]1CN([C@H](C)CO)C(=O)CCCn2nncc2CO[C@@H]1CN(C)S(=O)(=O)c1ccc2ccccc2c1
→ -25%	u
- COc1ccccc1N1CCN(C(=O)c2cc(C3CC3)on2)CC1
→ -17%	-26%
- O=C(C1CCCO1)N1CCN(c2c3c(nc4cc(-c5ccc(F)cc5)nn24)CCC3)CC1 (stereo not drawn)
→ -4%	-24%
- CCOC(=O)c1ccc(N=C2SC(C(=O)Nc3ccccc3)CC(=O)N2C)cc1 (stereo not drawn)
→ -2%	-10%
- Cc1ccc(C2CC(c3ccc(C)cc3)n3nc(N)nc3N2)cc1 (stereo not drawn)
→ -1%	-15%
- Cc1cccc(-n2c(/C=C/c3c[nH]c4ccccc34)nc3ccccc3c2=O)c1
→ -9%	-21%
- COc1cccc(C(C(=O)NC2CCCC2)N(CC2CCCO2)C(=O)Cc2cccs2)c1 (stereo not drawn)
→ -12%	-27%
- CC(=O)CCc1c(C)nc2ccc(C(=O)O)cc2c1Cl
→ -17%	-17%
- Cc1nnsc1C(=O)N/N=C/c1cccc(C(F)(F)F)c1
→ -14%	-15%
- CCC12CN3CC(CC)(CN(C1)C3c1ccc(OC(C)C)cc1)C2=O (stereo not drawn)
→ -13%	i
- Cc1ccc2oc(-c3ccc(NC(=O)c4ccncc4)cc3O)nc2c1
→ -6%	2%
- O=C(Cc1ccc(Cl)cc1)Nc1ccc(SC(F)F)cc1
→ u	-15%
- COc1cccc(CNC(=O)CN(C)S(=O)(=O)c2cccc3cccnc23)c1
→ -9%	-8%
- CNc1nc(-c2c(C)[nH]c3ccc(OC)cc23)cs1
→ -1%	u
- CCCCn1c(N)c(N(CC(C)C)C(=O)c2ccc(OCC3CCCO3)cc2)c(=O)[nH]c1=O (stereo not drawn)
→ -8%	-25%
- COc1cccc(OC)c1C(=O)NCCNc1nc2cc(C)cc(C)c2cc1C#N
→ 8%	-8%
- CCc1ccc2nc(NC(=O)CN3C(=O)NC4(CCCC4)C3=O)sc2c1
→ -29%	i
- O=C(O)CCc1ccc(-c2ccccc2)n1NC(=O)c1ccco1
→ -4%	x
- COc1cc([N+](=O)[O-])cc2sc(NC(=O)C(C)(C)C)nc12
→ -5%	i
- O=C(CSc1nc2cc3ccccc3cc2[nH]1)Nc1cccc(C(F)(F)F)c1
→ -5%	-23%
- CCCCn1c(N)c(N(CC(C)C)C(=O)CN(C)S(=O)(=O)c2ccc(C)cc2)c(=O)[nH]c1=O
→ -15%	-19%
- CCCN(CCC)C(=O)C1CC(=O)OC12CCOC(C)(C)C2 (stereo not drawn)
→ -5%	4%
- Cc1cc(C)n(-c2nc3c(c(=O)[nH]c(=O)n3C)n2Cc2ccc(F)cc2)n1
→ -2%	x
- O=C(CCCNS(=O)(=O)c1ccc(Br)cc1)N1CC[C@@]2(O)CCCC[C@H]2C1
→ -15%	x
- O=C1SC(Nc2ccccc2)C(=O)N1c1ccccc1 (stereo not drawn)
→ -11%	-13%
- c1ccc(Cn2nnnc2C(c2ccccn2)N2CCN(c3ccccc3)CC2)cc1 (stereo not drawn)
→ -10%	x
- CC(C)(C)C1C/C(=C/c2ccco2)C(=O)/C(=C/c2ccco2)C1 (stereo not drawn)
→ -2%	-22%
- CCS(=O)(=O)c1nc(NC(C)=O)n[nH]1
→ -17%	i
- N#C/C(=C(/O)Cc1cccc2ccccc12)c1nc2ccccc2s1
→ -10%	-13%
- CC(=O)Nc1ccc(CN(C)c2c(C)nc3ccc(C(=O)Nc4ccc(Cl)c(Cl)c4)cn23)cc1
→ -29%	-9%
- O=C(OC1CC2CC1[C@H]1CCCCN1C2=O)N1CCC(c2ccccc2)CC1 (stereo partly drawn)
→ -6%	i
- C=CCNCc1cc(=O)n2c(-c3ccccc3)csc2n1
→ -9%	i
- CC(C)(C)OC(=O)N1CCCC(C(=O)Nc2cccc(C(=O)NCc3ccccc3)c2)C1 (stereo not drawn)
→ -15%	i
- CN(CC(=O)Nc1cccc(F)c1)C(=O)c1cc(-c2cccs2)nn1-c1ccccc1
→ -21%	-6%
- CCC1CN(Cc2ccc(COC)o2)Cc2cc(OC)ccc2O1 (stereo not drawn)
→ -3%	-6%
- Cc1ccc2c(c1)N(C(=O)CCC(=O)N1CCN(c3ccccn3)CC1)CC(C)O2 (stereo not drawn)
→ -15%	i
- CCOc1cccc(NC(=O)Cc2cccs2)c1
→ -6%	x
- Cc1cc2c3c(c1C)C1(C(=O)N3C(C)(C)CC2C)C(C#N)=C(N)Oc2cc(O)ccc21 (stereo not drawn)
→ u	u
- Cc1ccc(CNC(=O)c2ccc3c(c2)N(Cc2ccccc2Cl)C(=O)CS3)cc1
→ -10%	-13%
- CCCCN(C)CCNC(=O)c1ccc(Cn2c(=O)[nH]c3cc(OC)c(OC)cc3c2=O)cc1
→ -18%	u
- CC1CCN(C(=O)CCc2ccc(S(=O)(=O)NC(C)C)cc2)CC1
→ 11%	-9%
- CCOC(=O)C1(CC2CCCCO2)CCN(Cc2cc3ccccc3[nH]2)CC1 (stereo not drawn)
→ u	2.5µM*
- O=S(=O)(Nc1ccc(F)cc1F)c1ccc(-n2cccn2)cc1
→ 5%	1%
